Assay outcomes (PubChem)
gsp antag = qHTS for Antagonists of gsp, the Etiologic Mutation Responsible for Fibrous Dysplasia/McCune-Albright Syndrome: qHTS; gsp-mutant cells, cAMP HTRF, 30 min; control for the full effect not named in the record; Potency, µM (titrated, usually from 76.9 µM), for the others: at the top dose activity change, negative = inhibition, most hits filed as inhibitors; actives 0.4% (n = 340,000); active = falling curve of any shape with a large fitted effect; inconclusive = falling curve, mostly with a smaller effect; inactive = flat or rising curve; cell line not stated here;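 further: intracellular cAMP measured with PDE inhibitor Ro 20-1724 present during compound exposure; potency means the concentration at half of the fitted maximal effect; on the % scale 0 is the no-effect control and ±100 the full control effect; nearly all actives have a fitted effect of over 65% in size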
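HTRF cAMP measurement after 30 min RT detection following 30 min, 37C compound treatment alongside […] (added as 300 uM solution) in G418-selected cells seeded at 2000/well and grown 16–24 h.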
Menin MLL FP FL = qHTS Assay for Inhibitors Targeting the Menin-MLL Interaction in MLL Related Leukemias: Competition With Fluorescein Labeled MLL-derived Peptide; AID 1766, 2009; FP activity change, % at 61.4 µM; 290,000 tested, under 10 active; Fluorescence polarization, fluorescein-MLL peptide displacement from menin; inconclusive = falling polarisation curve, or a change in total fluorescence; inactive = total fluorescence flat and polarisation flat or rising; no compound was filed as active; the % refers to the polarisation; negative = inhibition;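 further: % of control where 0% means no effect; inhibitors lower the polarisation; unlabelled MLL peptide was the positive control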
ClpP mod = qHTS Assay for Activators of ClpP; ATP-dependent Clp protease proteolytic subunit (Bacillus subtilis (strain 168)), P80244; Potency, µM (series often up to 57.5 µM), for the others: at the highest dose activity change, negative = active; actives 1.9% (n = 340,000); purified B. subtilis ClpP, FRET peptide cleavage, 20 min; active = well fitted falling curve with a large enough effect; inconclusive = small, poorly fitted or top-dose-only effect; inactive = no such curve, though single readings can be large or run the other way; further: potency means the concentration at half of the fitted maximal effect; the source files actives as falling curves though it sought activators and does not explain the sign; nearly all actives have a fitted effect of over 65% in size; many hits overshoot -100%
Target sequence (P80244 whole entry, looked up): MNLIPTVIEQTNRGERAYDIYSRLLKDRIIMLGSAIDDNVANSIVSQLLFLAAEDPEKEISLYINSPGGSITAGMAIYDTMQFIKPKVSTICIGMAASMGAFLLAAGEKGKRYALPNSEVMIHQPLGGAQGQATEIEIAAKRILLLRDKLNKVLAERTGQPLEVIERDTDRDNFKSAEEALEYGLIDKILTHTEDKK
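Buffer: 100 mM Tris/HCl pH8, 100 mM KCl, 0.05% low protease BSA, 2.5% glycerol, 0.01% Tween-20. ClpP 10 microg/mL final; 20 min RT; delta FRET normalized to ADEP and DMSO controls.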
Sfp PPTase inh = qHTS Assay for Inhibitors of Bacillus subtilis Sfp phosphopantetheinyl transferase (PPTase); 4'-phosphopantetheinyl transferase ffp (Bacillus subtilis), Q9F4F7; Biochemical Sfp PPTase activity, qHTS; Potency, µM, without a hit: max response, negative = inhibition, most hits filed as inhibitors; actives 3.5% (n = 310,000); active means well fitted inhibition curve with a large enough effect; inconclusive means small, poorly fitted or top-dose-only effect, or another doubt; inactive means no such curve, though single readings can be large or run the other way;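 further: the enzyme is Sfp with the accession as filed and its product quenches rhodamine fluorescence; potency means the concentration at half of the fitted maximal effect; 0% = enzyme reaction without inhibitor and -100% = no enzyme wells; top concentration of the series not given in the record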
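Compounds were incubated with enzyme (final 15 nM) for 15 min at room temperature before substrate addition started the reaction. Fluorescence at 525 nm excitation, 598 nm emission was recorded immediately and after 30 minutes.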
TRPV1 PAM = HTS Assay for Compounds that Act as Potentiators of the Vanilloid Receptor 1 | potentiation, % at 8.33 µM | actives 0.02% (n = 320,000) | TRPV1-expressing cells, Fluo-8 calcium influx, capsaicin EC20 potentiation; host cell line not named in the record; control for the full effect not named in the record; active means potentiation above 80%; inconclusive means 30% to 80%; inactive means below 30%; further: 0% is about no effect
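TRPV1-expressing cells were cultured overnight at 35.5C and loaded with Fluo-8 calcium dye for 40 to 90 min at room temperature. After a 10 s baseline, compound was added and calcium influx was read kinetically for 3 min (ex 480/em 520 nm).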
gsp agonist = qHTS for Agonist of gsp, the Etiologic Mutation Responsible for Fibrous Dysplasia/McCune-Albright Syndrome: qHTS. gsp mutant cells, cAMP HTRF, 30 min; control for the full effect not named in the record. Potency, µM (top dose mostly 76.9 µM), for inactives: top-dose activation (cAMP increase), hits mostly activators. actives 0.13% (n = 340,000). AID 624287, 2012; active = well fitted activation curve with a large enough effect; inconclusive = small, poorly fitted or top-dose-only effect, or another doubt; inactive = no such curve, though single readings can be large or run the other way; cell line not stated here;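 further: phosphodiesterase inhibitor Ro 20-1724 added with compounds to block cAMP breakdown; potency means the concentration at half of the fitted maximal effect; nearly all actives have a fitted effect of over 60% in size; about a fifth of the inactives were tested at one dose only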
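Cells stably selected in G418 were plated at 2000/well, grown 16-24 hr, then given compounds in DMSO with the PDE inhibitor […] (300 uM solution added) for 30 min at 37C; cAMP was read by HTRF.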
D2 potentiator = Beta-Arrestin HTS for Positive Allosteric Modulators of the Human D2 Dopamine Receptor: Potentiators; D(2) dopamine receptor (Homo sapiens), P14416; DiscoveRx D2 beta-arrestin cells, luminescence, 90 min; 100% = 57 uM dopamine signal; potentiation, % (concentration not given with the values); actives 0.23% (n = 360,000); AID 624464, 2012; active = potentiation of 50% or more; inconclusive = 30% to 50%; inactive = 30% or less;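 further: compound concentration not given in the record; tested on top of an EC20 dose of dopamine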
Target sequence (P14416 whole entry, looked up): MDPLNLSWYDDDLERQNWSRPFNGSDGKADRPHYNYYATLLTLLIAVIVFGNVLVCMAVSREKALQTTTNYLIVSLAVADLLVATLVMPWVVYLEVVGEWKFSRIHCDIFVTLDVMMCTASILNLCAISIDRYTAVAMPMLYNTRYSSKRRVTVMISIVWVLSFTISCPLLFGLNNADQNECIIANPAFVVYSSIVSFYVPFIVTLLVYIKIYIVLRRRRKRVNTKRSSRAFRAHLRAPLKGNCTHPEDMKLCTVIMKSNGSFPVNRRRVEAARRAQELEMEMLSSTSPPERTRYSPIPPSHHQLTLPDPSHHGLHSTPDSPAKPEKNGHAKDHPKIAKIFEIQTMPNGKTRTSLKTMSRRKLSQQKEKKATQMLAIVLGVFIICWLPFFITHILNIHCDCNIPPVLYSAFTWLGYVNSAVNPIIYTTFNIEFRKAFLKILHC
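PathHunter beta-arrestin assay in DiscoveRx D2 cells. Compounds were added with an EC20 of dopamine (50 nM final) for 90 min at 37 deg C. Luminescence was read 1 h after detection reagent, with 57 uM dopamine as the EC100 control.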
An asterisk follows results filed as active; ? = inconclusive; . = no result given; [ ] = another dose, or the depositor's remark.

Order of values – gsp antag, Menin MLL FP FL, ClpP mod, Sfp PPTase inh, TRPV1 PAM, gsp agonist, D2 potentiator
COC(=O)c1csc(S(=O)(=O)N2CCCCC2)c1OC
→ 2%, 2.2, 2.1%, 11%, 8, -3%, -16
CCOP(=O)(OCC)C(Nc1ccccc1)c1cc(OC)ccc1OC (stereo unspecified)
→ 2%, 5.7, -1.0%, 9%, -14, 5%, -8
CCN1CCN(S(=O)(=O)c2cc(C(=O)O)ccc2Cl)CC1
→ 0%, 0.4, -0.4%, 1%, -1, -28%, 1
O=C(O)CSCC(=O)Nc1ccc(Br)c(C(F)(F)F)c1
→ 8%, 0.1, ., 25%, 3, -3%[15.4 µM], -3
Cc1cccc(C(C)C)c1NC(=O)CSc1cccc[n+]1[O-]
→ -2%, ., -2.0%, ., ., 7%[15.4 µM], -1
CCn1c(O)c(C=NC2CCCC2)sc1=S
→ -7%, 1.7, 0.8%, -8%, -14, 17%, 5
O=C(NC1CC(=O)N(c2cccc(F)c2)C1)N1CCN(C(=O)c2ccco2)CC1 (stereo unspecified)
→ 10%, ., 0.4%, ., 1, 12%, 13
CC(C)(C)OC(=O)[C@H]1[C@H](c2ccc([N+](=O)[O-])cc2)C2(C(=O)c3ccccc3C2=O)C2c3ccccc3C=NN21 (stereo partly specified)
→ -17%, ., -1.0%, -15%, 0, -38%[inhibitor], ?
O=C(N/N=C/c1ccncc1)c1cc2ccccc2o1
→ -11%, 5.6, ., 10%, -19, 12%[15.4 µM], -7
O=C(Nc1ccc(-c2nc3ncccc3o2)cc1)c1ccc(Br)o1
→ 13%, 3.6, -19%, -25%, -1, 17%, 1
COc1cc(OC)cc(C(=O)/C=C2\Sc3ccccc3N2C)c1
→ -7%, -3.1, ., 50µM*, -13, -3%, 2
COc1ccc(/C(=N\Nc2ccccc2C(=O)O)c2ccccc2)cc1
→ ?, -0.5, 0.7%, 2%, 5, -34%, -1
COc1ccc(CN(C(=O)CSc2nnc(-c3ccc(F)cc3)o2)c2ccc(F)cc2)cc1
→ -17%, 1.1, -2.7%, -3%, 6, -2%, 7
Cc1cc(C(=O)Nc2nc3c(C)cccc3s2)c(C)o1
→ 7%, 4.1, -13%, 11%, -10, -4%, -22
CCN(CC)c1ccc2cc(-c3nnc(-c4ccccc4)o3)c(=O)oc2c1
→ 5%, ?, -20%, 13%, 1, 4%, -2
CCN(CC)S(=O)(=O)c1cccc(C(=O)OCC(=O)c2ccc3c(c2)NC(=O)CO3)c1
→ -6%, 2.1, -18%, 24%, 6, -29%, 10
Nc1c(C(=O)O)sc2nc(-c3ccccc3)cc(-c3ccccc3)c12
→ -9%, 4.4, 4.0%, -12%, -4, 17%, -12
CC12CCC(=O)N1C(C(=O)O)Cc1c2[nH]c2ccccc12 (stereo unspecified)
→ 11%, 1.9, -1.2%, -2%, 2, -15%, -11
Cc1ccc(C2(C)NC(=O)N(CC(=O)Nc3cc(S(=O)(=O)N4CCOCC4)ccc3C)C2=O)cc1 (stereo unspecified)
→ -1%, ., -5.1%, -7%, 22, -34%[inhibitor], -4
COc1ccc(C(=Cc2ccccc2)C(=O)O)cc1
→ -6%, ., ., ., ., -5%, 0
O=C(NCc1ccco1)c1cc2cc3ccc(Cl)cc3nc2o1
→ 11%, 1.4, -12%, -17%, -14, -7%, -8
COc1cc(CN2CCCCCC2)cc([N+](=O)[O-])c1O
→ -5%, -3.3, -1.9%, -24%, -9, -33%[inhibitor], -20
CC1CC(C)CN(C(=O)C2CC(=O)N(c3ccc(F)cc3)C2)C1 (stereo unspecified)
→ 7%, -7.3, ., 1%, 2, ?, -2
Cc1ccc(S(=O)(=O)N(CC(=O)NCC2CCCO2)c2cccc([N+](=O)[O-])c2)cc1 (stereo unspecified)
→ 4%, -0.6, 0.7%, -13%, -13, 4%, -4
O=S1(=O)C[C@@H](N2CCN(c3ccccn3)CC2)[C@H](COCc2ccccc2)N1
→ ., ., -1.5%, ., ., -54%[inhibitor], 0
CCOc1ccc(C(=O)CCc2nc3ccccc3s2)cc1
→ -5%, 3.0, 0.2%, -13%, -3, 1%, -5
CCOC(=O)c1cn(Cc2cccc(Cl)c2)c2cc(C)nn2c1=O
→ -9%, 2.1, -2.8%, 4%, 12, -10%[15.4 µM], -4
CC(=O)Nc1cccc(NC(=O)CSc2ccc(C(F)(F)F)cc2[N+](=O)[O-])c1
→ 0%, 1.8, 0.0%, 4%, 11, 6%, 8
CC1=CC(=O)C=C/C1=C(/c1ccc(O)cc1C)c1ccccc1S(=O)(=O)O
→ 8%, ., 2.2%, ., 2, ?, 1
COc1ccccc1CNC(=O)C1CCC(CNS(=O)(=O)c2ccc(NC(C)=O)cc2)CC1 (stereo unspecified)
→ 4%, -0.3, -1.6%, -18%, -16, 12%, -15
C[C@@H]1CCCCO[C@@H](CN(C)S(C)(=O)=O)[C@@H](C)CN([C@H](C)CO)C(=O)c2cc(N(C)C)ccc2O1
→ ., ., -6.5%, ., ., -74%[inhibitor], 16
Cc1[nH]n2c(=O)c(C#N)c(-c3ccccc3)nc2c1-c1ccccc1
→ ?, ?, 0.1%, -6%, -4, 10%, 4
CC(C)Cc1nc2oc3c(Cl)ncnc3c2c2c1CCC2
→ 3%, 2.9, 32µM*, -8%, -7, 7%, -5
COc1ccc(C(=O)CCC(=O)Nc2cccc(Cl)c2)cc1
→ -2%, 11, ., 11%, 23, -1%[15.4 µM], -5
N#CC(C#N)=Cc1cn(-c2ncc(C(F)(F)F)cc2Cl)c2ccccc12
→ 7%, 1.4, 16µM*, -1%, 4, -14%, -40
CCNC(=O)C(=O)N/N=C/c1cc([N+](=O)[O-])ccc1O
→ -4%, 0.9, ., 15%, 3, -1%[15.4 µM], -9
CC(CCCC(C)(C)O)NC(=O)c1cc(COc2ccc3ncccc3c2)on1 (stereo unspecified)
→ ?, 3.6, ., 23%, 6, 3%[15.4 µM], 0
C/C(=N\NS(=O)(=O)c1ccc([N+](=O)[O-])cc1)c1ccc2c(c1)OCO2
→ 9%, -1.5, -2.6%, 9%, -14, ?, -16
Cc1cc(Br)cc(C)c1OCC(=O)NNC(=O)CCC(=O)NCc1ccccc1
→ 2%, 7.8, 0.4%, -21%, -13, -34%[inhibitor], 0
COc1ccc(NC(=O)c2ccc3nc(C)sc3c2)cc1
→ -16%, 2.6, ., 3%, -9, 11%, -7

Arranged by heavy-atom count (highest first): part of the list above.
Order of values – gsp antag, Menin MLL FP FL, ClpP mod, Sfp PPTase inh, TRPV1 PAM, gsp agonist, D2 potentiator
Cc1cc(Br)cc(C)c1OCC(=O)NNC(=O)CCC(=O)NCc1ccccc1
→ 2%, 7.8, 0.4%, -21%, -13, -34%[inhibitor], 0
N#CC(C#N)=Cc1cn(-c2ncc(C(F)(F)F)cc2Cl)c2ccccc12
→ 7%, 1.4, 16µM*, -1%, 4, -14%, -40
C/C(=N\NS(=O)(=O)c1ccc([N+](=O)[O-])cc1)c1ccc2c(c1)OCO2
→ 9%, -1.5, -2.6%, 9%, -14, ?, -16
CC(C)Cc1nc2oc3c(Cl)ncnc3c2c2c1CCC2
→ 3%, 2.9, 32µM*, -8%, -7, 7%, -5
CCNC(=O)C(=O)N/N=C/c1cc([N+](=O)[O-])ccc1O
→ -4%, 0.9, ., 15%, 3, -1%[15.4 µM], -9

Additional results:
| molecule | gsp antag | Menin MLL FP FL | ClpP mod | Sfp PPTase inh | TRPV1 PAM | gsp agonist | D2 potentiator |
| --- | --- | --- | --- | --- | --- | --- | --- |
| CC1=C(C(=O)Nc2ccccc2C)C(c2ccccc2)NC(=O)N1 (stereo unspecified) | 5% | -1.2 | -0.3% | 0% | 21 | 2% | 1 |
| COC(=O)CC(N)c1ccc(OC)c2ccccc12 (stereo unspecified) | 14% | 3.5 | ? | -1% | 5 | -24% | -12 |
| O=C(NCc1ccccc1)C1c2ccccc2Oc2ccccc21 | 5% | 4.4 | -1.5% | -1% | -6 | -19% | -17 |
| COc1ccc(S(=O)(=O)NCCC(C)C)cc1OC | 9% | 1.5 | 0.4% | 11% | 1 | -30%[inhibitor] | -12 |
| c1ccc2c(c1)OCCOCCOCCOCCOCCOc1ccccc1OCCOCCOCCO2 | -24% | -0.7 | 0.8% | 13% | 8 | ? | 11 |
| CCOc1ccc(NC(=O)c2cc(=O)[nH]c3ccccc23)cc1 | 6% | -0.6 | -1.3% | -10% | 7 | -1%[15.4 µM] | 3 |
| Cc1cc(C)c(NC(=O)C[N+](C)(C)CC(O)COc2cccc3ccccc23)c(C)c1 (stereo unspecified) | 0% | 0.0 | . | -4% | ? | ? | -24 |
| COC(=O)c1c(NC(=O)COC(=O)CC(NC(C)=O)c2ccccc2)sc(C)c1C (stereo unspecified) | -4% | . | -14% | . | 2 | 2% | -5 |
| Cc1ccccc1NC(=O)Cc1nnc(SCC(=O)Nc2ccccc2)n1C | 9% | -0.2 | -0.6% | 11% | -4 | ? | -2 |
| CN1C[C@@H]2C[C@@H](c3cccn3-c3nccs3)N3CCC[C@@]23C1=O | -25% | -2.9 | . | 2% | -8 | 12%[15.4 µM] | -1 |
| NS(=O)(=O)c1ccc(CCNC(=O)c2ccc(Cl)c(S(=O)(=O)N3CCCCC3)c2)cc1 | -24% | . | -55% | . | . | -2%[15.4 µM] | -4 |
| CC(NC(=O)CCn1nc(-c2ccc(Cl)cc2)ccc1=O)c1ccccc1 (stereo unspecified) | 0% | 2.2 | -1.4% | -6% | ? | ? | 5 |
| COC(=O)C(/C=N/OCc1ccc([N+](=O)[O-])cc1)NC(=O)c1cccc(Cl)c1 (stereo unspecified) | -5% | -1.0 | -1.1% | 6% | -15 | 9% | -6 |
| Cc1cc(=S)cc(C)n1CCCn1ccnc1 | 2% | 5.1 | -0.5% | 4% | -13 | -22% | 12 |
